TRPML1 blocker – blocks the human TRPML1 channel. Q9GZU1. TRPML1-inducible cells, Ca2+ dye fluorescence, FDSS; active compounds read low; inhibition of EC80 agonist-evoked calcium signal. activity change, negative = inhibition, % (no concentration beside the values). actives 0.02% (n = 390,000). AID 624415; in the data active means activity change below about -50%; inconclusive means about -30% to -50%; inactive means above about -30%;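 note: stimulus is agonist 54-4 at its EC80 concentration; % is set by controls: 0 for no effect and ±100 for the full control effect; compound concentration not given in the record; the text of the record puts the active cut at -80%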
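Tet-induced TRPML1-DL cells loaded with Ca8 no-wash calcium dye were read kinetically on FDSS. Compound addition was followed by EC80 agonist 54-4 (4 uM final); inhibition was read over 110 s.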
Six1-Eya2 blk – inhibitors of human Six1/Eya2 interaction | activity change, % (no concentration beside the values) | AlphaScreen GST-Six1/His-Eya2 binding, biochemical; active compounds read low; control for the full effect not named in the record | actives 0.56% (n = 360,000) | Q15475+O00167; in the data active = activity change below about -65%; inconclusive = about -30% to -65%; inactive = above about -30%; note: % is set by controls: 0 for no effect and ±100 for the full control effect
Target sequence (O00167 whole entry, looked up): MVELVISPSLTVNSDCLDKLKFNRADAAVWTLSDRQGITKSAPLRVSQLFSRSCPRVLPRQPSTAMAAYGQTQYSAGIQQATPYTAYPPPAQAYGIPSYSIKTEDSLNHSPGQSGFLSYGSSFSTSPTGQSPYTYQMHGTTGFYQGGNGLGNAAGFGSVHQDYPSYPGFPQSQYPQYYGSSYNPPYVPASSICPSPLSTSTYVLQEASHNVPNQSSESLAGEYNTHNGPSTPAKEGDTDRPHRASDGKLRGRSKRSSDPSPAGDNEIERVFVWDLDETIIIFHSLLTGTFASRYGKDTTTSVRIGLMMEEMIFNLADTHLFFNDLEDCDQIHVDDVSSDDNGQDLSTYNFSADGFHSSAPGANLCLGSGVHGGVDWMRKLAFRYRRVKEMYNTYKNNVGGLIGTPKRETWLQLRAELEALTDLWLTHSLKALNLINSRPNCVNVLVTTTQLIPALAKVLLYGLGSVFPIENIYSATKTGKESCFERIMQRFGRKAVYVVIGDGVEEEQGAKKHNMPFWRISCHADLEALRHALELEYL
Target sequence (Q15475 whole entry, looked up): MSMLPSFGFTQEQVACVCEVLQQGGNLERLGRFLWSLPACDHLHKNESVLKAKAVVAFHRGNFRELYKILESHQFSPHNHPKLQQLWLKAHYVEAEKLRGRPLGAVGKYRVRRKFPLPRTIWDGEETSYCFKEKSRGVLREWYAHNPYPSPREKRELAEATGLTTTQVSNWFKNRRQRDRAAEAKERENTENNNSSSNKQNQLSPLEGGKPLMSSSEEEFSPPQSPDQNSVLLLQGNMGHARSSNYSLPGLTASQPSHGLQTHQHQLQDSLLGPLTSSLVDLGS
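GST-Six1 + His-Eya2 (5X stock: 250/500 nM); Tris pH 8.0, 300 mM NaCl, 0.05% BSA, 0.02% Tween 20; GSH donor/Ni acceptor beads; 1 h 37 °C dark; AlphaScreen readout.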
D2 PAM – positive allosteric modulators of human D2 dopamine receptor; P14416; DiscoveRx D2 beta-arrestin cells, luminescence, 90 min; 100% = 57 uM dopamine signal; potentiation, % (test concentration not listed); actives 0.23% (n = 360,000); AID 624464; active = potentiation of 50% or more; inconclusive = 30% to 50%; inactive = 30% or less;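 note: compound concentration not given in the record; tested on top of an EC20 dose of dopamine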
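PathHunter D2 cells, attached overnight at 37 deg C, received compound in DMSO plus dopamine at EC20 (50 nM final) for 90 min at 37 deg C. Beta-arrestin recruitment was read as luminescence after 1 h with detection reagent at ambient temperature.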
PINK1 expr mod – changes PINK1 expression; Potency, µM (titrated, usually from 76.6 µM), inactives show at the top dose activation (PINK1 increase), actives largely listed as activators; AID 624263; actives 0.2% (n = 410,000); PINK1 immunofluorescence, high-content cytometry, 24 h; active = well fitted activation curve with a large enough effect; inconclusive = small, poorly fitted or top-dose-only effect; inactive = flat fitted curve, though single readings scatter; cell line not stated here;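 note: potency is the fitted concentration of half-maximal effect; % of control where 0% means no effect; nearly all actives have a fitted effect of over 65% in size; a mitochondrial uncoupler was the plate control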
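Readout is PINK1 immunofluorescence, quantified alongside mitochondrial, cell and nuclear markers by laser-scanning microplate cytometry. Cells from a stable line were exposed to compound titrations (5 concentrations) for 24 hours, with CCCP controls.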
TRPML1 agonist – human mucolipin-1 channel agonism; Q9GZU1; TRPML1-expressing cells, Ca2+ dye fluorescence, FDSS; host cell line not named in the record; reference of the full effect not given here; activation, % (no concentration beside the values); actives 0.12% (n = 410,000); AID 624414; in the data active = activation above about 50%; inconclusive = about 30% to 50%; inactive = below about 30%; note: 0% is about no effect; the text of the record puts the active cut at 80%
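Tetracycline-induced TRPML1-DL cells are seeded and incubated overnight before loading with a no-wash Ca2+ dye and quencher. Agonist activity is taken from the 110 s fluorescence read following compound pin-transfer on an FDSS, before EC80 54-4 challenge.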
D2 ag – agonists of human D2 dopamine receptor (beta-arrestin); DiscoveRx PathHunter D2 beta-arrestin, luminescence, 90 min; 100% = 57 uM dopamine signal; activation, % (no concentration beside the values); actives 0.084% (n = 360,000); in the data active = activation above about 40%; inconclusive = about 15% to 40%; inactive = below about 15%; note: compound concentration not given in the record; the text of the record calls up to 30% inactive
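Agonist mode: compounds alone added to overnight-plated D2 PathHunter cells for 90 min at 37 C, with 57 uM final dopamine (EC100) defining full response. Beta-arrestin recruitment detected by chemiluminescent reagent, read after 1 h at ambient temperature.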
The depositor's hits bear a star; ? = inconclusive; nt = not tested or not shown; [ ] = dose if it differs, or a comment.

SMILES | TRPML1 blocker | Six1-Eya2 blk | D2 PAM | PINK1 expr mod | TRPML1 agonist | D2 ag
CCOCCn1ccc2c(OCC(=O)NCc3ccccc3)cccc2c1=O | -15 | -1 | -18 | 0.1% | -0.7 | -4.3
CCCCN(CC)C(=O)CSc1nc2n[nH]c(C)c2c(=N)n1-c1cccc(Cl)c1 | -7 | nt | nt | 0.6% | 0.3 | nt
Cn1c(CC(=O)NNC(=O)c2ccc(F)cc2F)nc2ccccc21 | 21 | -21 | -2 | 1.3% | -0.1 | -0.4
Cc1cc(SCC(=O)NCCN2C(=O)CSC2=O)nc2c(C)cccc12 | -1 | 3 | -8 | 1.6% | 0.2 | -3.5
COc1ccc2c(CC(=O)NCC3CCC(C(=O)O)CC3)cc(=O)oc2c1 (configuration not stated) | 5 | 4 | -5 | 0.5% | 0.6 | -2.5
CCn1c(SC(C)C(=O)Nc2ccc(N3CCOCC3)cc2)nnc1C1CC1 (configuration not stated) | 6 | 0 | 1 | 1.3% | 3.7 | 8.7
COc1ccc(C2=Nc3ccc(Br)cc3C(c3ccccc3)N2CC(=O)NN)cc1 (configuration not stated) | -17 | -14 | -32 | 8.8% | 1.8 | -2.2
NC(=O)c1cc(S(=O)(=O)NCC2CCC(C(=O)Nc3cccc(Cl)c3)CC2)cs1 (configuration not stated) | 16 | nt | nt | 2.2% | -0.1 | nt
C/C(=N\NC(=O)c1nnn(-c2nonc2N)c1-c1cccs1)c1cccc(O)c1 | -2 | 3 | -1 | 0.1% | -0.7 | 1.9
Cc1ccc(C)c(CN2CCCN(Cc3ccccc3C)S2(=O)=O)c1 | -13 | nt | nt | 3.4% | -0.1 | nt
NS(=O)(=O)c1ccc(NC(=O)CSc2nc3c(cnn3-c3ccccn3)c(=O)[nH]2)cc1 | 11 | -12 | 8 | 0.3% | -0.3 | -1.3
COc1ccccc1C1C=C(c2ccc(F)cc2)Nc2nc(-c3ccc(Cl)cc3)nn21 (configuration not stated) | 19 | nt | nt | -0.2% | 1.9 | nt
COc1ccc(NC(=O)Nc2ccc3c(c2)C(=O)N([C@@H](C)CO)C[C@@H](C)[C@@H](CN(C)S(=O)(=O)c2cn(C)cn2)O3)cc1 | -10 | -2 | -4 | -0.4% | -0.9 | -0.5
CCOC(=O)c1c(-c2ccccc2)oc2cc(Br)c(O)c(C=O)c12 | 1 | 5 | -23 | 13% | 1.9 | 2.1
O=S(=O)(Nc1cc(S(=O)(=O)N2CCCC2)ccc1O)c1ccc(Cl)s1 | -8 | 9 | 1 | 2.2% | -0.7 | -6.2
Cc1cccc(NC(=O)C(c2ccccc2)N2Cc3ccccc3C2=O)c1C (configuration not stated) | 0 | nt | nt | -19% | 0.4 | nt
CC1(C(=O)NS(=O)(=O)c2ccccc2)CCN1C(=O)Cc1ccccc1 (configuration not stated) | -28 | 6 | -4 | -0.4% | 0.0 | -3.2
CCOC(=O)c1sc(NC(=O)CSc2ncccn2)c(C#N)c1C | -13 | 1 | -2 | 0.0%[38.3 µM] | 0.1 | -1.1
CN1CCC(N(C)C(=S)NC(=O)C23CC4CC(CC(C4)C2)C3)CC1 | 17 | 5 | -6 | 2.5% | 2.0 | -0.6
COc1ccc(C(=O)c2sc(Nc3ccccc3F)nc2N)cc1 | 14 | -7 | -8 | 0.6% | 5.6 | -3.5
Cc1cc(C(=O)N2CCCC2)n[nH]1 | -2 | 27 | -6 | -0.3% | 0.2 | -7.2
CN(C)S(=O)(=O)c1ccc2oc(SCC(=O)NCC(F)(F)F)nc2c1 | -6 | 2 | -14 | 1.8% | 1.2 | 0.5
CC(=O)NCCc1nc2ccccc2n1Cc1ccc(Cl)cc1 | -2 | 12 | -1 | 1.1% | 0.1 | -3.5
CCOC(=O)C1=C(O)/C(=C/c2cn(CC(=O)NCC3CCCO3)c3ccccc23)SC1=Nc1ccc(C)cc1 (configuration not stated) | 26 | -2 | 3 | 14µM* | 19 | -3.0
CC(=O)OCC(=O)C1CCC2C3CC=C4CC(O)CCC4(C)C3CCC12C (configuration not stated) | 26 | 0 | -11 | -0.1% | -0.6 | 1.9
c1ccc(CNc2nc(NCCc3ccncc3)c3sccc3n2)cc1 | nt | 0 | -13 | -0.6% | ? | 2.6
O=S(=O)(c1ccc(Cl)cc1)n1cnc2ccccc21 | -8 | 18 | 2 | 0.9% | -0.3 | 0.1
COc1cc2cc(C(c3nnnn3C(C)(C)C)N3CCc4ccccc43)c(=O)[nH]c2cc1OC (configuration not stated) | 4 | -11 | -1 | 0.9%[38.3 µM] | 0.1 | -2.3
S=C1NC(c2ccccc2)=NCN1c1ccc(Cl)cc1 | -7 | 2 | -11 | -0.1% | 0.6 | -3.8
COc1cc(C2c3c(-c4c(C)cc(C)cc4O)n[nH]c3C(=O)N2CCO)cc(OC)c1OC (configuration not stated) | 8 | nt | nt | 10% | 0.6 | nt
O=S(=O)(c1ccc(Cl)cc1)N1CCN(c2ncnc3sccc23)CC1 | 2 | -2 | 21 | -0.5% | 1.6 | 1.3
CC(C)Sc1nnc(Nc2ccccc2)s1 | -3 | 0 | -2 | 6.9% | 0.4 | -1.4
Cc1c(NC(=O)CN2CCN(c3ccc(O)cc3)CC2)c(=O)n(-c2ccccc2)n1C | -11 | 3 | 12 | 1.2% | 0.8 | 1.9
CCC(C)Sc1nc2c(cnn2-c2ccc(C)cc2)c(=O)[nH]1 (configuration not stated) | -12 | 1 | -7 | -0.2% | -0.1 | 0.7
CC(C)CCn1cnc2c(c1=O)c1nc3ccccc3nc1n2Cc1ccc2c(c1)OCO2 | 7 | 15 | -3 | 6.3% | -0.6 | -5.2
CCNC(=S)N1CCC(c2nc3cc(C)c(C)cc3[nH]2)CC1 | 8 | -2 | -7 | 1.8% | -0.3 | -3.6

Some of these compounds in order of count of non-hydrogen atoms, lowest first:
SMILES | TRPML1 blocker | Six1-Eya2 blk | D2 PAM | PINK1 expr mod | TRPML1 agonist | D2 ag
CC(C)Sc1nnc(Nc2ccccc2)s1 | -3 | 0 | -2 | 6.9% | 0.4 | -1.4
O=S(=O)(c1ccc(Cl)cc1)N1CCN(c2ncnc3sccc23)CC1 | 2 | -2 | 21 | -0.5% | 1.6 | 1.3
COc1cc(C2c3c(-c4c(C)cc(C)cc4O)n[nH]c3C(=O)N2CCO)cc(OC)c1OC (configuration not stated) | 8 | nt | nt | 10% | 0.6 | nt

Full records, quoted from the list:
Entry for `CC(C)Sc1nnc(Nc2ccccc2)s1` : TRPML1 blocker = -3; Six1-Eya2 blk = 0; D2 PAM = -2; PINK1 expr mod = 6.9%; TRPML1 agonist = 0.4; D2 ag = -1.4
Entry for `CCNC(=S)N1CCC(c2nc3cc(C)c(C)cc3[nH]2)CC1` : TRPML1 blocker = 8; Six1-Eya2 blk = -2; D2 PAM = -7; PINK1 expr mod = 1.8%; TRPML1 agonist = -0.3; D2 ag = -3.6

The results go on:
SMILES | TRPML1 blocker | Six1-Eya2 blk | D2 PAM | PINK1 expr mod | TRPML1 agonist | D2 ag
COc1cc(CNCCO)ccc1OCCc1ccccc1 | 9 | -14 | -11 | 2.2% | 0.2 | -1.2
Cc1ccc(C(=O)CCC(=O)N2CCN(C(=O)c3ccco3)CC2)cc1 | -13 | -4 | -1 | -0.9% | 3.2 | 1.8
Cc1cc(NC(=O)CSc2nc(C)c(C)c(=O)[nH]2)no1 | 26 | 1 | -32 | -0.6% | 0.4 | -5.0
Cc1cc(NC(=O)C(C)Oc2ccc(Cl)cc2Cl)n(-c2ccccc2)n1 (configuration not stated) | 39 | 0 | 3 | 0.0% | 2.1 | -1.1
CCOCCn1c(SCc2ccc(F)cc2)nc2c1c(=O)[nH]c(=O)n2C | 0 | 0 | -2 | 1.2% | 0.5 | -3.2
Cc1ccc(NC(=O)CCNCc2ccco2)cc1S(=O)(=O)N(C)C | 26 | 4 | -21 | -0.9% | 0.4 | 1.7
Cc1nn2c(-c3cccc(NC(=O)c4ccco4)c3)nnc2c2ccccc12 | -11 | -69* | -5 | 0.1% | 0.8 | -1.3
Cc1nc2nc(SCC(=O)c3ccc([N+](=O)[O-])cc3)[nH]c2cc1Br | 1 | 0 | 17 | 7.2% | 1.2 | 7.4
O=C(Cn1cc(SCc2cccc(F)c2)c2ccccc21)N1CCOCC1 | 4 | nt | nt | 0.9% | -0.3 | nt
Cc1cc(C)n2nc(SCC(=O)NC(=O)NCc3ccco3)nc2n1 | -17 | -2 | -3 | -0.9% | 1.3 | -4.7
CCn1c(C)c(C(=O)O)c2cc(OC)c3ccccc3c21 | -1 | -5 | 0 | 5.1% | -0.7 | -1.4
Cc1nn(C(=O)N2CCOCC2)c(C)c1C | -1 | 7 | -16 | -1.7% | 2.0 | -1.1
COc1cccc(Cn2cccc(NC(=O)NCc3ccccc3)c2=O)c1 | 1 | -8 | 2 | 3.1% | -0.5 | 7.1
Cc1cc(OCC(=O)N2CCOCC2)c(C(C)C)cc1Cl | 4 | -1 | -10 | -0.2%[38.3 µM] | -0.4 | -0.4
CC(=O)Nc1ccc(C(=O)CSc2ncn(-c3ccccc3)n2)cc1 | 7 | 0 | -2 | 0.2% | 3.4 | -3.8
CC(NC(=O)COC(=O)CCC(=O)c1ccc(Cl)cc1)c1ccccc1 (configuration not stated) | 6 | -4 | 2 | -0.3% | -0.1 | 0.9
CCCOC1OC(=O)c2c1ccc(OC)c2OC (configuration not stated) | -3 | 3 | 0 | 0.4% | -0.6 | -0.6
CC(C)C(=O)N=c1sc2cccc(F)c2n1C | 27 | 4 | -10 | 0.4% | 1.3 | -1.8
COc1cc(C(=O)Nc2ccc3c(c2)ncn3C(C)(C)C)cc(OC)c1OC | -10 | 3 | -2 | 2.7% | -0.3 | -1.3
COc1ccc(N/C=C\C(=O)c2ccc(Br)cc2)cc1OC | 33 | -3 | -26 | 40µM* | 4.6 | -1.3
CCOc1ccc(NC(=O)N(Cc2ccc(CC)cc2)Cc2cn[nH]c2-c2ccc(OC)cc2)cc1 | 29 | nt | nt | -0.1% | -0.3 | nt
Cc1cc(C)c(NC(=O)C2CCCN2CCOC(=O)c2cccc([N+](=O)[O-])c2)c(C)c1 (configuration not stated) | 4 | 15 | -5 | 5.3% | -1.1 | -2.2
COc1cc2ccccc2cc1C(=O)N1CCN(C)CC1 | -3 | 6 | -17 | -0.7%[38.3 µM] | 0.9 | -1.8
O=C1NC(=Nc2cccc([N+](=O)[O-])c2)SC1(CO)CO | 6 | -8 | -16 | 0.3% | 1.2 | 3.9
CCCS(=O)(=O)c1c(S(=O)(=O)CCC)c2cnccn2c1C(=O)c1ccc(Cl)cc1 | 8 | -2 | -10 | 0.7% | -0.4 | 7.8
Cc1noc(C)c1N=Nc1ccccc1C(=O)O | 23 | -9 | -8 | -0.5% | -0.4 | -1.6
